# Screens deposited in PubChem BioAssay by National Center for Advancing Translational Sciences (NCATS).
# Menin MLL FP FL = menin-MLL binding inhibition, fluorescein peptide; Fluorescence polarization, fluorescein-MLL peptide displacement from menin; FP activity change, % at 61.4 µM; 290,000 tested, under 10 active; AID 1766; inconclusive = falling polarisation curve, or a change in total fluorescence; inactive = total fluorescence flat and polarisation flat or rising; no compound was filed as active; the % refers to the polarisation; negative = inhibition;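 note: % of control where 0% means no effect; inhibitors lower the polarisation; unlabelled MLL peptide was the positive control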
# D2 agonist = agonists of human D2 dopamine receptor (beta-arrestin) | DiscoveRx PathHunter D2 beta-arrestin, luminescence, 90 min; 100% = 57 uM dopamine signal | activation, % (test concentration not listed) | 360,000 compounds, 0.084% hits | AID 624465; in the data active = activation above about 40%; inconclusive = about 15% to 40%; inactive = below about 15%; note: compound concentration not given in the record; the text of the record calls up to 30% inactive
# Target sequence (P14416 whole entry, looked up): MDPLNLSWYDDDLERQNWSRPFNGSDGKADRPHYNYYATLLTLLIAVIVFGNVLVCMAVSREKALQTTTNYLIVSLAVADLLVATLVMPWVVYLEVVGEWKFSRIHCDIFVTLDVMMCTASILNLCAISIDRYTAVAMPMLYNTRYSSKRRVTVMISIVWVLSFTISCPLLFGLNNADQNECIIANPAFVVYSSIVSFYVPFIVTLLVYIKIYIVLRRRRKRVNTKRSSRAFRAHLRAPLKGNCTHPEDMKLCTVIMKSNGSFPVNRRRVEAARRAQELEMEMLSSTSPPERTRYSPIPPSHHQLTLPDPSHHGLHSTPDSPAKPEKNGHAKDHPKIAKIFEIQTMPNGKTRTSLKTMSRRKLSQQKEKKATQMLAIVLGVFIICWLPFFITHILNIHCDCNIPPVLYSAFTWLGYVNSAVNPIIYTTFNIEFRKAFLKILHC
#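 Agonist mode: compounds alone added to overnight-plated D2 PathHunter cells for 90 min at 37 C, with 57 uM final dopamine (EC100) defining full response. Beta-arrestin recruitment detected by chemiluminescent reagent, read after 1 h at ambient temperature.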
# ClpP mod = qHTS Assay for Activators of ClpP; AID 651965, 2013; purified B. subtilis ClpP, FRET peptide cleavage, 20 min; ATP-dependent Clp protease proteolytic subunit (Bacillus subtilis (strain 168)), P80244; Potency, µM (titrated, usually from 57.5 µM), for the others: at the highest dose activity change, negative = active; 340,000 compounds, 1.9% hits; active = well fitted falling curve with a large enough effect; inconclusive = small, poorly fitted or top-dose-only effect; inactive = no such curve, though single readings can be large or run the other way; note: potency is the fitted concentration of half-maximal effect; the source files actives as falling curves though it sought activators and does not explain the sign; nearly all actives have a fitted effect of over 65% in size; many hits overshoot -100%
# Target sequence (P80244 whole entry, looked up): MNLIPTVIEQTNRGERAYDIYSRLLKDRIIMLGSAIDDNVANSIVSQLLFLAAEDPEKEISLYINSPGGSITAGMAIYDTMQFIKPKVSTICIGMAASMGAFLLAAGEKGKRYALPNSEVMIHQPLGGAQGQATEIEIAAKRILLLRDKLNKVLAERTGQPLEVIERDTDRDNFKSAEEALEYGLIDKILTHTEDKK
#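 Buffer: 100 mM Tris/HCl pH8, 100 mM KCl, 0.05% low protease BSA, 2.5% glycerol, 0.01% Tween-20. ClpP 10 microg/mL final; 20 min RT; delta FRET normalized to ADEP and DMSO controls.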
# gsp antag = gsp mutant antagonism; gsp-mutant cells, cAMP HTRF, 30 min; control for the full effect not named in the record; Potency, µM (series often up to 76.9 µM), for the others: at the top dose activity change, negative = inhibition, most hits filed as inhibitors; 340,000 compounds, 0.4% hits; active = falling curve of any shape with a large fitted effect; inconclusive = falling curve, mostly with a smaller effect; inactive = flat or rising curve; cell line not stated here;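 note: intracellular cAMP measured with PDE inhibitor Ro 20-1724 present during compound exposure; potency is the fitted concentration of half-maximal effect; % is set by controls: 0 for no effect and ±100 for the full control effect; nearly all actives have a fitted effect of over 65% in size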
#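 G418-selected cells were plated in DMEM/10% FBS for 16-24 h at 37C, then treated with compounds plus the PDE inhibitor […] (300 uM solution added) for 30 min at 37C. Intracellular cAMP was measured by HTRF after 30 min lysis at room temperature.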
# PINK1 expr mod = modulators of PINK1 expression; PINK1 immunofluorescence, high-content cytometry, 24 h; Potency, µM (top dose mostly 76.6 µM), without a hit: at the highest dose activation (PINK1 increase), hits mostly activators; 410,000 compounds, 0.2% hits; active = well fitted activation curve with a large enough effect; inconclusive = small, poorly fitted or top-dose-only effect; inactive = flat fitted curve, though single readings scatter; cell line not stated here;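 note: potency is the fitted concentration of half-maximal effect; % of control where 0% means no effect; nearly all actives have a fitted effect of over 65% in size; a mitochondrial uncoupler was the plate control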
#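 Compound titrations (5 concentrations, 24 h) on a stable cell line; DMSO and CCCP controls. Endpoint: fixed-cell PINK1 immunofluorescence with mitochondrial, cell and nuclear markers, scanned by microplate cytometer.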
# Sfp PPTase inh = Sfp phosphopantetheinyl transferase inhibition | Potency, µM, for the others: max response, negative = inhibition, actives largely listed as inhibitors | 310,000 compounds, 3.5% hits | Q9F4F7 | Biochemical Sfp PPTase activity, qHTS; active = well fitted inhibition curve with a large enough effect; inconclusive = small, poorly fitted or top-dose-only effect, or another doubt; inactive = no such curve, though single readings can be large or run the other way;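 note: the enzyme is Sfp with the accession as filed and its product quenches rhodamine fluorescence; potency is the fitted concentration of half-maximal effect; 0% = enzyme reaction without inhibitor and -100% = no enzyme wells; top concentration of the series not given in the record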
#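 After 15 min at room temperature with compound, 15 nM Sfp received 5 uM rhodamine-CoA plus 12.5 uM BHQ-2-ybbR (50 mM Hepes pH 7.6, 10 mM MgCl2). Rate came from the fluorescence difference over 30 min, ex 525/em 598 nm.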
# gsp ag = gsp mutant agonism; gsp mutant cells, cAMP HTRF, 30 min; control for the full effect not named in the record; Potency, µM (doses to about 76.9 µM), inactives show at the highest dose activation (cAMP increase), hits mostly activators; 340,000 compounds, 0.13% hits; AID 624287; active = well fitted activation curve with a large enough effect; inconclusive = small, poorly fitted or top-dose-only effect, or another doubt; inactive = no such curve, though single readings can be large or run the other way; cell line not stated here;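 note: phosphodiesterase inhibitor Ro 20-1724 added with compounds to block cAMP breakdown; potency is the fitted concentration of half-maximal effect; nearly all actives have a fitted effect of over 60% in size; about a fifth of the inactives were tested at one dose only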
#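 Cells stably selected in G418 were plated at 2000/well, grown 16-24 hr, then given compounds in DMSO with the PDE inhibitor […] (300 uM solution added) for 30 min at 37C; cAMP was read by HTRF.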
# * hit, by the source's call; ? = inconclusive; . = no result given; [ ] = another dose, or the depositor's remark.
nr	structure	Menin MLL FP FL	D2 agonist	ClpP mod	gsp antag	PINK1 expr mod	Sfp PPTase inh	gsp ag
1	COc1cc(C)ccc1OCc1cc(C(=O)NCc2ccncc2)no1	.	-1.8	-2.4%	9%	0.9%	16%	-54%[inhibitor]
2	CCOc1ccc(NC(=O)CN(C)C(=O)COc2cccc3c2OC(C)(C)C3)cc1OCC	.	-1.5	-2.3%	4%	0.2%	.	-3%
3	COC(=O)[C@H]1Cc2c([nH]c3ccccc23)[C@H](c2ccccc2)N1	-1.8	4.5	-4.2%	-1%	5.7%	9%	?
4	O=C(CN1C(=O)S/C(=C\c2cccc(Cl)c2)C1=O)NC1C=CS(=O)(=O)C1 (stereo not drawn)	-0.7	0.7	-16%	6%	1.9%	6%	-4%
5	COCCCNC(=O)CS(=O)(=O)Cc1nc(-c2ccccc2C)oc1C	-0.3	-1.0	-4.9%	7%	3.7%	20%	1%
6	CONC(=O)Nc1ccccc1[N+](=O)[O-]	-1.5	-1.5	0.9%	11%	-0.3%	-5%	?
7	COc1cccc(C(=O)NN2C(=S)N(c3ccccc3)C(=O)C2CC(N)=O)c1 (stereo not drawn)	1.6	-2.6	-29%	-2%	2.8%	2%	-1%[15.4 µM]
8	COc1ccc(N(C2CSC2)S(=O)(=O)c2ccccc2)cc1	3.6	-3.1	-0.8%	-15%	10%[38.3 µM]	2%	-24%
9	Cc1cccc(NS(=O)(=O)c2cccc(C(=O)N3CCCCCCC3)c2)c1	.	-0.6	0.7%	-14%	2.8%	.	22%
10	COc1ccc(NC(=O)c2cccnc2Nc2ccc(OC)cc2)cc1	3.3	-0.5	0.4%	1%	-0.5%	-7%	?
11	CCOC(=O)C1CCCN(C(=O)c2cn(CC)c3ccc(S(=O)(=O)N4CCCC4)cc3c2=O)C1 (stereo not drawn)	-1.8	-5.6	-6.5%	-5%	3.2%[38.3 µM]	16%	9%
12	Cc1cccc(NC(=O)C2CCN(S(=O)(=O)c3c(C)noc3C)CC2)c1	-5.0	-0.1	-1.0%	-4%	0.4%	11%	24%
13	c1ccc(CNc2nc(-c3cccs3)nc3ccccc23)nc1	4.1	-0.2	.	-26%	4.8%	-15%	5%[15.4 µM]
14	Cn1cccc1Cc1nnc(SCC(=O)Nc2ccc(F)cc2)n1-c1ccc(F)cc1	-2.2	-9.3	15%	0%	-0.3%	-20%	1%
15	CCCN(CCC)Cc1cc(=O)oc2ccc3ccccc3c12	.	-5.3	-27%	.	0.8%	.	.
16	COc1ccc(NC(=O)CN2C(=O)c3ccccc3S2(=O)=O)cc1S(=O)(=O)N1CCOCC1	.	-2.9	-1.5%	4%	0.4%	.	?
17	CCOc1ccc(N(C(=O)c2snc(C(N)=O)c2N)C(C(=O)NC2CCCC2)c2ccncc2)cc1 (stereo not drawn)	2.1	0.2	.	-4%	3.7%	16%	0%
18	C/C(=N\NC(=O)c1cc(-c2cccs2)nc2ccccc12)c1ccccn1	0.6	-14	4.4%	-16%	0.7%	24%	?
19	O=C(Nc1ccc2c(c1)OCO2)C1CCN(S(=O)(=O)c2ccc3c(c2)OCCO3)CC1	2.9	-4.0	-3.9%	-11%	-1.7%[38.3 µM]	14%	2%
20	CCN1CCCC1CNC(=O)C1CCN(Cc2nc(-c3cccc(Br)c3)oc2C)CC1 (stereo not drawn)	1.7	-1.3	-0.2%	10%	-1.3%	-6%	-8%
21	CN(C)CCNC(=O)C12CC3(C)CC(C)(CC(C)(C3)C1)C2	1.1	-0.6	0.8%	18%	0.6%	14%	-2%
22	Cc1ccc(/C(=N/Nc2nc3ccccc3s2)C2=C(O)c3ccccc3C2=O)cc1	-2.0	-1.2	-1.6%	-15%	13%	79µM*	-3%[15.4 µM]
23	CCOC(=O)C1=NN(c2ccc(Cl)cc2)/C(=C/C2=NCCc3cc(OC)c(OC)cc32)S1	2.3	-10	?	-7%	3.2%	-6%	16%
24	O=C(Nc1nncs1)c1cc(S(=O)(=O)N2CCOCC2)ccc1Cl	-0.2	-0.7	.	-7%	3.8%	12%	2%[15.4 µM]
25	CCCCOC(=O)C1=C(C)Nc2ncnn2C1c1cc(OC)ccc1OC (stereo not drawn)	3.3	-3.7	1.0%	-2%	.	10%	-35%
26	COc1ccc(Nc2nc(-c3cccc(OC)c3O)nc3ccccc23)cc1	2.9	3.2	-0.3%	-27%	1.0%	-18%	9%
27	Cc1ccc(-c2nnc3cccc(Cl)n23)cc1	28	-2.4	-2.6%	8%	0.7%	10%	7%[15.4 µM]
28	CN=c1scc(C)n1/N=C/c1ccc(O)cc1O	3.5	-0.1	2.0%	-25%	1.1%	2%	-22%
29	NS(=O)(=O)c1ccc(CNC(=O)c2cc(-c3cccs3)nc3ccccc23)cc1	1.7	0.6	3.4%	-19%	11%	-17%	?
30	COc1ccc(S(=O)(=O)Nc2cccc(S(=O)(=O)NC3=NCCC3)c2)cc1[N+](=O)[O-]	.	-7.5	-1.2%	5%	?	.	-8%
31	COC(=O)c1c(C)oc2ccc(N(C(=O)Oc3ccccc3)S(=O)(=O)c3ccccc3)cc12	15	-0.1	-1.1%	8%	0.5%	7%	0%
32	Cc1ccc(NC(=O)C(=O)NCCN2CCN(C(=S)Nc3ccccc3)CC2)cc1	9.8	1.7	0.8%	-5%	1.7%	17%	?
33	Brc1ccccc1-n1nnc(-c2cnc3ccccc3c2)n1	.	0.6	1.1%	-19%	0.0%	.	.
34	CC1(c2cccc(Br)c2)NC(=O)N(CC(=O)Nc2ccc(N3CCCCC3)cc2)C1=O (stereo not drawn)	.	-2.5	-0.7%	.	2.5%	.	-49%[inhibitor]
35	COC(=O)c1ccc(CSc2nc(C(F)(F)F)c3c(c2C#N)CCC3)o1	9.8	-3.8	-4.1%	1%	-0.9%	56µM*	16%
36	COc1ccc(C2=NOC(C(=O)N3CCCCCC3)C2)cc1OC (stereo not drawn)	3.3	1.6	-1.7%	2%	0.6%	14%	-73%
37	Cc1ccc2c(c1)N(CC(=O)NC1CCCC(C)C1C)C(=O)c1cccnc1O2 (stereo not drawn)	1.6	-1.9	-0.9%	-2%	2.0%	5%	-4%
38	CN(CCCNC(=O)c1cn(C)c2ccc(S(=O)(=O)N(C)C)cc2c1=O)c1ccccc1	1.7	2.7	1.0%	?	0.8%	5%	9%
39	O=C(CNC(=O)c1ccco1)Nc1ccncc1	.	-2.7	-3.0%	4%	-1.2%	.	-8%[15.4 µM]
40	COc1ccc(CCNC(=O)C2(C)CCC(=O)N2Cc2ccc(F)cc2Cl)cc1OC (stereo not drawn)	0.0	6.0	0.6%	5%	3.7%	13%	24%
41	Cc1cccc(C2=NN(c3ccccc3)[C@@H](C(=O)N3CCOC3=O)[C@@H]2c2ccc(Cl)cc2)c1	19	-0.2	3.0%	-10%	-0.5%	26%	.
42	Cn1c2ccccc2c2cnn(CC(=O)N3CCCCC3)c(=O)c21	-2.4	0.3	4.2%	0%	2.0%	14%	-17%
43	Cc1ccccc1NC(=O)Cc1nnc(SCc2ccc(Cl)c(Cl)c2)n1C	10	-0.4	-0.5%	-8%	12%[38.3 µM]	0%	-4%
44	Cn1cnc(S(=O)(=O)NC2CCN(Cc3ccccc3)CC2)c1	-0.8	0.5	-1.8%	13%	3.6%	13%	5%
45	COC(=O)/C=C1/N/C(=N\c2nc(C)cc(C)n2)N(c2ccc(Cl)cc2)C1=O	4.1	0.8	0.3%	-7%	2.3%	9%	-28%
46	Cc1cc(C)c(S(=O)(=O)CCC(C)C)c(=O)[nH]1	-0.3	?	.	3%	5.0%	-5%	14%
47	CC(=O)c1cccc(NC(=O)C2CCCC2)c1	3.0	-3.0	-0.1%	4%	3.0%	27%	-2%
48	COc1cccc(N(CC(=O)Nc2ccc3c(c2)OCO3)S(=O)(=O)c2ccccc2)c1	0.1	-2.1	2.0%	-17%	-2.8%	-30%	7%
49	COc1ccc(CC(=O)Nc2nnc(C)s2)cc1	0.8	-3.1	0.2%	-1%	-2.1%	2%	-13%
50	c1ccc(NN=C(c2ccccc2)c2cccs2)cc1	.	-2.8	-1.3%	.	18%	.	-16%
51	O=C(COC(=O)C12CC3CC(CC(C3)C1)C2)Nc1ncc(Cl)cc1Cl	7.9	3.1	1.0%	-13%	4.2%[38.3 µM]	2%	-28%
52	CCN(/N=C/c1cccs1)c1cc(=O)n(C)c(=O)[nH]1	2.3	-2.3	0.5%	-1%	-1.6%	-7%	-1%
53	O=C(Nc1ccccc1)Nc1nnc(/C=C/c2ccccc2Cl)s1	5.5	-0.7	-20%	0%	11%	16%	-1%
54	Cc1cccc(NC(=O)CSCC(=O)Nc2cc(C(F)(F)F)ccc2N2CCOCC2)c1	.	1.3	-1.7%	.	4.1%	.	-66%[inhibitor]
55	C[C@H]1CN([C@@H](C)CO)C(=O)Cc2cc(NC(=O)CCC(F)(F)F)ccc2O[C@H]1CN(C)Cc1ccc(C(F)(F)F)cc1	.	1.7	0.3%	?	-0.5%	.	.
56	Cc1cccc(OC(=O)c2cn(C)nc2C(F)(F)F)c1C	0.3	-2.4	-15%	12%	2.1%	-10%	-8%
57	Cc1nc(-c2c(C(=O)NNC(=O)Nc3c(C)cccc3C)noc2C)cs1	4.6	-1.2	-0.3%	-2%	0.4%	19%	13%[15.4 µM]
58	S=c1sc2c(N3CCOCC3)ncnc2n1-c1ccccc1	0.9	-2.2	1.7%	3%	4.0%	-12%	3%
59	O=c1cc(CNc2ccc(Br)cc2)nc2sccn12	2.1	-2.3	-13%	4%	-0.6%	16%	-11%
60	O=C(NCc1ccccc1)c1ccco1	0.7	-0.1	-2.2%	-4%	2.0%	6%	9%
61	O=C(c1ccc(OC2CCN(C(=O)c3cccnc3)CC2)cc1)N1CCCCCC1	-4.0	-0.2	.	-10%	-0.9%	16%	-25%
62	O=C(O)c1ccc(C2CCCCC2)cn1	2.6	0.6	-2.8%	-3%	-0.4%	?	-30%[inhibitor]
63	CC(C)N(C(=O)COC(=O)CNS(=O)(=O)c1ccccc1F)c1ccccc1	3.7	-1.0	-2.8%	-4%	0.2%	9%	-24%
